# High-throughput results deposited in PubChem BioAssay by several laboratories.
# VCAM-1 imaging: inhibitors of TNFa-induced VCAM-1 surface display, imaging, high-content imaging, pooled HUVEC, TNFa stimulus (AID 456) | 0.2% of 10,000 active | one-dose inhibition, % at 5 µM; IC50 in µM for titrated hits | HUVEC TNFa-induced VCAM-1 surface expression, immunofluorescence imaging; numbers were filed only for top-ranked candidate wells;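 active means top tenth filtered wells with inhibition above zero that passed visual or statistical confirmation; inactive means the rest, including hits rejected on review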;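 further: 0% = stimulated vehicle wells and 100% = unstimulated cells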
# FPR binder: human FPR ligands by binding competition, primary screen, cell-based, FPRL1 counter-screen, flow cytometry; fMet-Leu-Phe receptor (Homo sapiens), P21462; FPR-expressing cells, fluorescent ligand binding; inhibition, %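 (tested at 6.7 µM)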; 0.74% of 24,000 active;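 further: 0% = buffer wells and 100% = receptor blocker peptide wells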
# Target sequence (P21462 whole entry, looked up): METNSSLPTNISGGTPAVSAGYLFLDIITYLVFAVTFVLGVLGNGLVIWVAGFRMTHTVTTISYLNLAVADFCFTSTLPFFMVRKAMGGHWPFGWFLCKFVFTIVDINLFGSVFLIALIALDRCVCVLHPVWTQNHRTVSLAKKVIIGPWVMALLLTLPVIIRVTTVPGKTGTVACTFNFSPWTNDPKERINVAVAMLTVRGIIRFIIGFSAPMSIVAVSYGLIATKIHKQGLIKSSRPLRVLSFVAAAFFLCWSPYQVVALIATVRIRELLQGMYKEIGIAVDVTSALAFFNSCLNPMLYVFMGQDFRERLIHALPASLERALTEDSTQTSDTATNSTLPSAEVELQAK
# FPRL1 binder: human FPRL1 ligands by binding competition, primary screen, cell-based, FPR counter-screen, flow cytometry; inhibition, %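 (tested at 6.7 µM)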; FPRL1-expressing cells, fluorescent ligand binding inhibition; 0.3% of 24,000 active; AID 441, 2006; N-formyl peptide receptor 2 (Homo sapiens), P25090;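 further: 0% = buffer alone and 100% = receptor blocker peptide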
# Target sequence (P25090 whole entry, looked up): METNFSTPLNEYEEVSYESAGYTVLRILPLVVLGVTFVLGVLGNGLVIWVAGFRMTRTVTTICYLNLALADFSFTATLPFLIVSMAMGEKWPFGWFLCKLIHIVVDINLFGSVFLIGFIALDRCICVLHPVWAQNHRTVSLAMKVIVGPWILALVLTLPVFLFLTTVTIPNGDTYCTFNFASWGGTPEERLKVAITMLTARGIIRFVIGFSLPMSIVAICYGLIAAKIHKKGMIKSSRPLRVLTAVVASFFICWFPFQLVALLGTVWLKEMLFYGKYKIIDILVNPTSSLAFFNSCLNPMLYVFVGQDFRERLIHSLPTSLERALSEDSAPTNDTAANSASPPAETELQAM
# VCAM-1 augmentation: enhancers of VCAM-1 display on endothelial cells, imaging, high-content imaging, pooled HUVEC, TNFa stimulus (AID 457); Pooled HUVEC, TNFa-induced VCAM-1 immunofluorescence imaging; hits of this screen are not shown here; 0.2% of 10,000 active; calls only;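 active means a top-ranked rise in VCAM-1 staining upheld on image or statistical review; inactive means the rest, including candidates rejected on review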;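 further: compounds tested at 5 µM in the well; cells exposed to compound for 24 hours before fixing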
# VCAM-1 inhibition: inhibitors of TNFa-induced VCAM-1 surface display, cell-based, plate reader, pooled HUVEC, TNFa stimulus (AID 454). HUVEC TNFa-induced VCAM-1 surface immunofluorescence, plate reader; numbers were filed only for top-ranked candidate wells. inhibition, % at 5 µM. 0.2% of 10,000 active;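 active means compound among top-ranked inhibitors of TNF-induced VCAM-1 adhesion protein staining, with the hit upheld by image or statistical review; inactive means the rest, including hits rejected on review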;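 further: 0% = TNFa with vehicle and 100% = cells without TNFa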
# An asterisk follows results filed as active; i = inactive; ? = inconclusive; / = no result given; & = joins results of further samples; ! = a repeat was not active.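 How the source made its calls, unless noted: active means mean above 30%; inconclusive means self-fluorescent; inactive means the rest.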 A portion of the library; count on the stated rates, not on these rows.
SMILES,VCAM-1 imaging,FPR binder,FPRL1 binder,VCAM-1 augmentation,VCAM-1 inhibition
CC(C)CCNC(=O)C(c1cccs1)N(CC1CCCO1)C(=O)Cn1nnc2ccccc21 (stereo not drawn),i,9.4,7.1,i,i
CCOC(=O)Cn1c(=O)oc2cc(S(=O)(=O)Nc3cccc(C)c3)ccc21,/,-6.0,6.7,/,/
O=C(NC1CCCCCC1)C1CCN(S(=O)(=O)N2CCC3(CC2)OCCO3)CC1,/,3.0,13.9,/,/
CCCC1(C(=O)OC)NC(c2cc(OC)c(OC)c(OC)c2)C2C(=O)N(CC)C(=O)C21 (stereo not drawn),i,-5.6,5.2,i,i
O=C1NCCCc2c1no[n+]2[O-],i,-13.5,-12.1,i,i
CCC1Oc2ccc(C)cc2N(CC(=O)NCCN2CCCCCC2)C1=O (stereo not drawn),/,-8.8,4.2,/,/
CCN1C(=O)Cc2cc(S(=O)(=O)N3CCOCC3)ccc21,i,-2.3,0.1,i,i
O=C(CCN1C(=O)C2C3C=CC(C3)C2C1=O)Nc1nccs1 (stereo not drawn),/,-0.9,16.2,/,/
COc1ccc(S(=O)(=O)N2Cc3ccccc3CC2C(=O)Nc2ccc(O)cc2)cc1OC (stereo not drawn),i,-1.8,-6.3,i,i
CCCN(CCC)S(=O)(=O)c1ccc(C(=O)Nc2nnc(CSC)o2)cc1,/,-4.8,-7.6,/,/
CCCCOc1ccc(C(=O)Nc2cccc(C)n2)cc1,/,4.9,-4.4,/,/
CCC(=O)N1CCN=C1SCc1ccccc1,/,-2.4,3.8,/,/

# A second format for part of the listing above.
> CC(C)CCNC(=O)C(c1cccs1)N(CC1CCCO1)C(=O)Cn1nnc2ccccc21 (stereo not drawn)
  VCAM-1 imaging: i
  FPR binder: 9.4
  FPRL1 binder: 7.1
  VCAM-1 augmentation: i
  VCAM-1 inhibition: i
> CCN1C(=O)Cc2cc(S(=O)(=O)N3CCOCC3)ccc21
  VCAM-1 imaging: i
  FPR binder: -2.3
  FPRL1 binder: 0.1
  VCAM-1 augmentation: i
  VCAM-1 inhibition: i

# Next compounds.
SMILES,VCAM-1 imaging,FPR binder,FPRL1 binder,VCAM-1 augmentation,VCAM-1 inhibition
O=C(Nc1cccc(O)c1)C1CCCN1C(=O)OCc1ccccc1 (stereo not drawn),/,2.5,0.1,/,/
O=C(NCC1CCCO1)c1cccc(N2C(=O)C3C4C=CC(C4)C3C2=O)c1 (stereo not drawn),i,7.5,3.9,i,i
CCn1c(=O)cc(SCC(=O)N2CCN(c3ccccn3)CC2)c2ccccc21,/,2.8,-14.8,/,/
O=C(CSc1nnc(Cc2cc(=O)[nH]c(=O)[nH]2)n1-c1ccc(F)cc1)N1CCCCC1,/,3.0,-1.4,/,/
COc1ccc(CCN2CC(C#N)=C3c4cc(OC)c(OC)cc4CCN3C2)cc1OC,/,11.0,7.9,/,/
CCCOC(=O)C1[C@H]2C(=O)N(CCCOC)C[C@]23C=C[C@H]1O3 (stereo partly drawn),i,13.7,7.5,i,i
CC1CC(C)CN(CCCNC(=O)CNC(=O)Cn2ccc3ccccc3c2=O)C1 (stereo not drawn),/,0.9,0.2,/,/
CCN(CC)C(=O)CCC(=O)Nc1ccc(C(=O)OC)cc1,/,3.9,4.2,/,/
C1=CN2CCC1C(c1ccccc1)C2 (stereo not drawn),/,0.0,-2.1,/,/
CCOc1cc2c(cc1OCC)C(c1ccc(O)c(OC)c1)NCC2 (stereo not drawn),/,-13.5,5.8,/,/
CCN1C(=O)CC(C(=O)Nc2ccc(F)cc2)SC1=Nc1cccc(OC)c1 (stereo not drawn),/,-11.9,-4.2,/,/
CC(=O)c1cccc(NC(=O)Nc2ccc3c(c2)N(C)C(=O)CS3)c1,/,10.4,-0.2,/,/
CCOc1ccccc1NC(=O)N1CCCC1C(=O)Nc1nnc(CC)s1 (stereo not drawn),i,-4.7,5.7,i,i
CCn1c(SCC(=O)NC2CCCCC2)nc2c(c1=O)SC(C)C2 (stereo not drawn),/,0.5,-8.6,/,/
O=C(OCCCN1CCCC1)C1(c2ccccc2)CCCC1,i,-5.3,3.8,i,i
CCOc1ccc(NC(=O)CN2CCN(CC(=O)Nc3ccc(F)c(F)c3)CC2)cc1,i,2.4,-1.5,i,i
O=c1[nH]ncc2c3ccccc3n(Cc3ccc(F)cc3)c12,/,-7.0,-6.3,/,/
CCOc1ccc(-c2cn(S(=O)(=O)c3cccc4nsnc34)nc2N)cc1,i,-0.7,-5.5,i,i
Cc1ccc(-c2nnc3ccc(SCC(=O)Nc4cc(C)on4)nn23)cc1,/,1.3,-7.3,/,/
CCCCOc1cc(C(=O)NCCN(CC)CC)c2ccccc2n1,i,49.0*!,0.1&-3.3,i,i
Cn1cccc1Cc1nnc(SCC(=O)Nc2ccc(F)cc2)n1CCc1ccccc1,/,3.3,-0.4,/,/
CC(C)Cn1c(CN2CCCCC2C)nc2c1c(=O)n(C)c(=O)n2C (stereo not drawn),i,-4.2,-4.1,i,i
Cc1ccc(Cc2c(C)nc3c(C(=O)O)cnn3c2C)cc1,i,-1.4,-4.2,i,i
CC1=C(C#N)C(c2ccoc2)C(C(=O)OCc2ccccc2)=C(N)S1 (stereo not drawn),i,-7.3,-1.3,i,i
O=C(Cn1cc2c(n1)CCCCC2)NCc1cccs1,/,-7.9,-4.8,/,/
COc1ccccc1NC(=O)N1CCN(c2ccccn2)CC1,/,-0.3,4.6,/,/
COc1cccc(-c2noc(CCC(=O)NC3CCCCC3)n2)c1,i,-10.0,1.3,i,i
CCOC(=O)CNC(=O)Cn1cnc2c(nnn2-c2ccc(F)cc2)c1=O,/,-1.1,-0.1,/,/
O=C(CSc1nc(-c2ccco2)cc(C(F)(F)F)n1)NC1CCCC1,/,-3.8,3.9,/,/
O=C(NC1CCCC1)C1CCCN(S(=O)(=O)c2cccc3cccnc23)C1 (stereo not drawn),i,-2.9,-1.7,i,i
Cc1ccc(Cn2c(=O)c3c(nc4n3CCN4Cc3ccco3)n(C)c2=O)cc1,/,7.5,1.5,/,/
O=C(NCc1ccco1)c1cc2n(n1)C(C(F)(F)F)CC(c1ccc(F)cc1)N2 (stereo not drawn),i,-4.0,-2.0,i,i
COc1ccc(-n2c(Cc3cc(=O)[nH]c(=O)[nH]3)nnc2SCC(=O)NC2CCCC2)cc1,/,2.3,0.3,/,/
CCC(C)OC(=O)C1=C(C)NC(=O)CC1c1ccccc1OC (stereo not drawn),/,1.4,5.3,/,/
CC(C)C(NC(=O)c1ccco1)C(=O)NCC(c1ccco1)N1CCCCC1 (stereo not drawn),i,1.0,0.5,i,i
CCN(CC)c1ccc(NC(=O)CCCCCN2C(=O)c3ccccc3C2=O)cc1,/,5.3,-4.3,/,/
CCSCC1COC(c2cccn2Cc2ccc(C)cc2)=N1 (stereo not drawn),/,0.6,0.9,/,/
COC(=O)c1cccnc1-n1c(=O)c2cccnc2n(Cc2ccc(Cl)cc2)c1=O,/,-4.1,2.4,/,/
COc1ccc(C2CC(c3ccc(Cl)cc3Cl)Nc3nc(N)nn32)cc1 (stereo not drawn),i,9.3,-0.6,i,i
c1ccc(CN2CCN(CCCNc3ccc4nnc(-c5ccccc5)n4n3)CC2)cc1,i,-3.4,-0.7,i,i
CC(C)=CCCC(C)N(C=O)C(C)CCC=C(C)C (stereo not drawn),i,-3.4,1.6,i,i
O=S(=O)(Nc1ccc(Cl)c(C(F)(F)F)c1)c1cnc[nH]1,/,-6.0,-0.3,/,/
O=C(CCc1nc2ccccc2[nH]1)NC1CCCCC1,/,-2.1,1.0,/,/
CCCn1nc(NC(=O)c2cccs2)c2cc3cc(OC)ccc3nc21,i,19.7,-0.6,i,i
Cc1nc2nc(SCC(=O)NCc3ccco3)nn2c(C)c1Cc1ccccc1,i,-2.0,0.0,i,i
COc1cccc(NC(=O)C2C3C=CC4(O3)C2C(=O)N(C(C)C)C4C(=O)NC2CCCCC2C)c1 (stereo not drawn),i,0.7,-2.1,i,i
C=CCn1c(=S)[nH]c2nc3c(cc2c1=O)COC(C)(C)C3,i,-2.9,-2.1,i,i
Cn1nnnc1SCSc1nnnn1C,i,-2.2,-2.3,i,i

# Single records, as listed above. Order of screens: VCAM-1 imaging | FPR binder | FPRL1 binder | VCAM-1 augmentation | VCAM-1 inhibition
# C=CCn1c(=S)[nH]c2nc3c(cc2c1=O)COC(C)(C)C3 is listed as i | -2.9 | -2.1 | i | i
# c1ccc(CN2CCN(CCCNc3ccc4nnc(-c5ccccc5)n4n3)CC2)cc1 is listed as i | -3.4 | -0.7 | i | i
# COC(=O)c1cccnc1-n1c(=O)c2cccnc2n(Cc2ccc(Cl)cc2)c1=O is listed as / | -4.1 | 2.4 | / | /

# Later entries
SMILES,VCAM-1 imaging,FPR binder,FPRL1 binder,VCAM-1 augmentation,VCAM-1 inhibition
Cc1c(Cl)cccc1Nc1ccccc1C(=O)O,i,-4.2,-4.0,i,i
CCOC(=O)C1/C(=N\O)CC(C)(O)C(C(=O)OCC)C1c1ccc(N(C)C)cc1 (stereo not drawn),i,-6.1,-3.1,i,i
CSCC[C@@H](Nc1nc(-c2ccccc2)nc2c1oc1ccccc12)C(=O)O,i,21.7,2.2,i,i
Cc1cccc(-n2nnnc2SCc2csc(-c3ccccc3)n2)c1,i,-2.8,-5.3,i,i
CCOc1c(N2CCCCC2)c(=O)c1=O,/,-2.6,5.1,/,/
S=c1[nH]nc(-c2cccc(Br)c2)o1,i,7.8,5.0,i,i
CCOC(=O)CN1C(=O)CSc2ccccc21,/,-2.0,0.0,/,/
COCCNC(=O)c1snc2ccc(Cl)cc12,i,-3.1,2.8,i,i
Cc1ccc(CCNC(=O)C2CCN(S(=O)(=O)N3CCC4(CC3)OCCO4)CC2)cc1,/,-1.9,1.0,/,/
COc1ccc(-c2noc(CCC(=O)NCC3CCN(Cc4cccc(C)c4)CC3)n2)cc1,/,-3.2,4.3,/,/
Nc1ncnc(Nc2ccccc2C(F)(F)F)n1,i,-0.2,9.3,i,i
O=C(CCN1C(=O)C2C3C=CC(C3)C2C1=O)NCCN1CCCc2ccccc21 (stereo not drawn),/,0.5,4.7,/,/
Cc1cc(=O)n2[nH]c(C)c(-c3ccccc3)c2n1,/,-12.9,-0.3,/,/
CC1(C)CC(=O)C(C=Nc2ccccc2C(=O)O)=C(O)C1,/,0.6,3.6,/,/
O=C(C1CCN(S(=O)(=O)c2cccc3cccnc23)CC1)N1CCn2c1nc1ccccc12,/,2.8,-1.8,/,/
CCCCCC(=O)Nc1ccc(Cl)cn1,/,2.9,-2.2,/,/
O=C(c1c(F)cccc1F)N(Cc1ccccn1)C1CCCC1,i,-8.8,0.8,i,i
CCOC(=O)C1CCCN(C(=O)CN2C(=O)C(CC)Oc3ccc(C)cc32)C1 (stereo not drawn),/,0.9,-0.8,/,/
O=C1c2ccccc2-c2ncnc3c(N4CCOCC4)cc(N4CCOCC4)c1c23,/,?,-40.5,/,/
CCn1c(SCC(=O)Nc2cc(C)on2)nc2c(c1=O)SC(C)C2 (stereo not drawn),/,-7.6,2.0,/,/
CN(C)C(=O)N1CCC(C(=O)NCc2cccs2)CC1,/,5.4,-2.0,/,/
O=C(NCc1ccco1)c1ccc(CS(=O)(=O)Cc2ccc(Cl)cc2)o1,/,2.8,1.3,/,/
CCOC(=O)C1CCCN(CCC(C)c2ccccc2)C1 (stereo not drawn),i,-3.8,2.1,i,i
COc1ccc(Br)cc1CNC(=O)CCc1nc(-c2ccc(C)cc2)no1,i,0.4,-0.3,i,i
O=C(Nc1ccc(N2CCOCC2)cc1)c1cccc(S(=O)(=O)N2CCCC2)c1,i,-0.8,-7.5,i,i
C=CCN1C(=O)c2ccccc2Sc2ccc(C(=O)N3CCN(C)CC3)cc21,/,11.9,2.8,/,/
Cc1cc(NC(=O)C2CCCC2)nc2c1c(=O)oc1ccccc12,i,-2.3,-12.9,i,i
CCn1c(C(=O)NCc2ccccn2)cc2sccc21,/,1.8,-5.5,/,/
Cc1csc(NC(=O)C(Cc2ccccc2)n2cccc2)n1 (stereo not drawn),i,14.1,-1.7,i,i
COc1cccc(C(=O)Nc2cccc(C(=O)N3CCOCC3)c2)c1,i,0.8,-1.6,i,i

# Looked up above:
# For FPRL1 binder, Cc1cc(NC(=O)C2CCCC2)nc2c1c(=O)oc1ccccc12 has -12.9
# For FPR binder, O=C(OCCCN1CCCC1)C1(c2ccccc2)CCCC1 has -5.3
# For FPR binder, CCOc1ccc(-c2cn(S(=O)(=O)c3cccc4nsnc34)nc2N)cc1 has -0.7
# For FPRL1 binder, O=C(C1CCN(S(=O)(=O)c2cccc3cccnc23)CC1)N1CCn2c1nc1ccccc12 has -1.8
# For FPR binder, CCn1c(=O)cc(SCC(=O)N2CCN(c3ccccn3)CC2)c2ccccc21 has 2.8
